Vaccinia Venus: vaccinia inhibition (Venus reporter). Vaccinia virus Venus reporter expression, fluorescence. Potency, µM (top dose mostly 36.5 µM), inactives show at the top dose activity change, negative = inhibition, hits mostly inhibitors. 330,000 compounds, 0.46% hits; active means well fitted inhibition curve with a large enough effect; inconclusive means small, poorly fitted or top-dose-only effect; inactive means no such curve, though single readings can be large or run the other way; tested in A549 cells; further: nearly all actives have a fitted effect of over 30% in size; inactives centre near -10
VACV mCherry inh: inhibitors of vaccinia virus infection (mCherry reporter signal); Vaccinia virus mCherry reporter infection, fluorescence; about a quarter of the inactives have no number; Potency, µM (doses to about 36.5 µM), for inactives: at the top dose activity change, negative = inhibition, hits mostly inhibitors; 310,000 compounds, 0.63% hits; active = well fitted inhibition curve with a large enough effect; inconclusive = small, poorly fitted or top-dose-only effect; inactive = no such curve, though single readings can be large or run the other way; tested in A549 cells; further: nearly all actives have a fitted effect of over 35% in size; inactives centre near -10
Starred values were filed as active, the others as inactive; i = inactive; ? = inconclusive; nt = not tested or not shown; [ ] = another dose, or the depositor's remark. On the % scale 0 is the no-effect control and ±100 the full control effect; potency means the concentration at half of the fitted maximal effect. Not a hit list (roughly 0.88% active in at least one column).

canonical_smiles | VACV mCherry inh | Vaccinia Venus
COc1ccc(/C=C/C(=O)OCC(=O)c2c(N)n(C)c(=O)n(C)c2=O)c(OC)c1 | 0% | -20%
Cc1cc(Cl)c(OCCOCCN2CCCCC2)c(Br)c1 | -15% | -5%
Nn1c(SCC(=O)N2CCCCC2)nnc1-c1ccncc1 | nt | -29%
CCc1ccc(C=NC23CN4CN(CN(C4)C2)C3)s1 | i | -9%
CC(C)S(=O)(=O)N1CCN(c2ccnc3cc(Cl)ccc23)CC1 | -7% | -12%
CC(=O)NC1C(Oc2ccc3c(C)cc(=O)oc3c2)OC(COC(C)=O)C(OC(C)=O)C1OC(C)=O (configuration not stated) | -7% | 0%
COc1ccc(/C=C(/NC(=O)c2ccccc2)C(=O)NC(Cc2c[nH]c3ccccc23)C(=O)O)cc1 (configuration not stated) | i | -21%
CCCCn1nnnc1C(CCSC)N1CCC2(CC1)C(=O)NCN2c1ccccc1 (configuration not stated) | 30% | -2%
Cc1cccc(NC(=O)Cn2c(=O)oc3cc(S(=O)(=O)NC4CCCC4)ccc32)c1 | -1% | -13%
O=S(=O)(CCNCc1cccs1)c1ccc(Cl)cc1 | i | -23%
CC(C)(C)C(=O)OC/C(N)=N/OC(=O)c1ccc(Cl)cc1 | i | -5%
O=C(CNC(=S)N(CCCN1CCOCC1)Cc1cccs1)NC1CC1 | -8% | -5%
Cc1ccc2c(c1)N(C(=O)CCC(=O)N1CCC(C(N)=O)CC1)CC(C)O2 (configuration not stated) | 12% | 0%
CCOC(=O)N1CCN(C(=O)c2ccc(OCC)cc2)CC1 | -3% | 0%
CCOC(=O)CC(=O)CSc1nc2ccccc2c(=O)n1CCc1ccccc1 | -4% | 1%
CC(=O)c1ccc(S(=O)(=O)N(C)CC(=O)NCc2ccco2)cc1 | i | -12%

Given with each value named: part of the list above
CC(C)(C)C(=O)OC/C(N)=N/OC(=O)c1ccc(Cl)cc1
  VACV mCherry inh: i | Vaccinia Venus: -5%

O=C(CNC(=S)N(CCCN1CCOCC1)Cc1cccs1)NC1CC1
  VACV mCherry inh: -8% | Vaccinia Venus: -5%

Cc1ccc2c(c1)N(C(=O)CCC(=O)N1CCC(C(N)=O)CC1)CC(C)O2 (configuration not stated)
  VACV mCherry inh: 12% | Vaccinia Venus: 0%

CCOC(=O)N1CCN(C(=O)c2ccc(OCC)cc2)CC1
  VACV mCherry inh: -3% | Vaccinia Venus: 0%

Next results.
canonical_smiles | VACV mCherry inh | Vaccinia Venus
COc1ccc(C(=O)COC(=O)CCN2C(=O)C3C4CCC(C4)C3C2=O)cc1 (configuration not stated) | i | 8%
COc1ccc(-c2cnc3n2CCCCC3)cc1 | -21% | -17%
CCNc1nc(Oc2ccc(OCC(=O)OC)nn2)nc(N2CCOCC2)n1 | -6% | -4%
COc1ccc(Nc2nc(NCc3ccco3)nc(N/N=C/c3ccccc3F)n2)cc1 | -8% | -17%
Cc1ccc(NC(=O)CN2C(=O)CN=C(c3ccccc3)c3ccccc32)c(C)c1 | i | -10%
CCCC(CCC)C(=O)Nc1cc(-c2cn3cccnc3n2)ccc1OC | 1% | -6%
CCOC(=O)C1CCN(C(=O)COc2ccc3c(C)cc(=O)oc3c2)CC1 | i | -4%
O=C(NC1CCS(=O)(=O)C1)c1cc2c(=O)n3ccccc3nc2n1Cc1ccccc1 (configuration not stated) | i | -12%
CC(=O)c1ccc(N(C(=O)CNC(=O)c2cccs2)C(C(=O)NCC2CCCO2)c2ccccc2)cc1 (configuration not stated) | -12% | -7%
COc1ccc(NC(=O)CN2C(=O)c3ccccc3S2(=O)=O)cc1OC | -14% | -4%
Cc1cc(C)cc(NS(=O)(=O)c2ccc3[nH]cc(C(=O)NCCc4ccccc4)c(=O)c3c2)c1 | -17% | -11%
CC(C)C(=O)Nc1ccc2c(c1)C(=O)NC2=O | -2% | 4%
CCOC(=O)C(CCc1ccccn1)c1ccccc1 (configuration not stated) | i | -11%
COC(=O)c1cc(S(=O)(=O)NCc2ccccc2)c[nH]1 | -16% | -15%
O=c1cc(CN2CCN(c3ccccc3F)CC2)c2cc3c(cc2o1)CCCC3 | -14% | -5%
C#Cc1ccc([C@H]2C=C(C(=O)OCC=C)O[C@@H](OCCCCO)C2)cc1 | 0% | -9%
NS(=O)(=O)c1ccc(CCNC(=O)c2nc(CS(=O)(=O)c3ccc(Cl)cc3)no2)cc1 | -12%[7.34 µM] | 3%[7.34 µM]
CSc1nc(Oc2ccc3ccccc3c2)c2ccccc2n1 | nt | -17%
Cc1ccc(NCc2nnc(SCC(=O)Nc3cc(C)on3)n2C)cc1 | nt | -21%
O=c1[nH]c2ccccc2n1C1CCN(C(c2nnnn2C2CCCCC2)C2CC2)CC1 (configuration not stated) | i | -5%
COc1ccc(C(O)c2nc(-c3ccc(OC)nc3)cs2)cc1 (configuration not stated) | i | -5%
O=C(Nc1ccc(Br)cc1F)c1ccc2nc(CCc3ccccc3)oc2c1 | -22% | ?
COC(=O)c1ccccc1NC(=O)N1CCN(S(=O)(=O)c2ccc(Cl)cc2)CC1 | ? | -19%
O=C(O)c1cc(S(=O)(=O)NCCOc2ccccc2)ccc1Cl | -18% | -5%
O=C(Nc1cc(C(F)(F)F)ccc1Cl)c1ccc(NC(=O)C(F)(F)F)cc1 | ? | ?
C[C@@H]1CN([C@@H](C)CO)C(=O)CCCn2nncc2CO[C@H]1CN(C)C(=O)Oc1ccccc1 | i | -17%
O=[N+]([O-])c1cc(-c2csc(NC(CO)c3nc4ccccc4n3CCOCCO)n2)ccc1Cl (configuration not stated) | ? | ?
Cc1ccc(Cn2c(CO)cnc2SCc2ccc(F)cc2)cc1 | -11% | -8%
CCn1cc(S(=O)(=O)c2cc(C)cc(C)c2)c(=O)c2cc(F)c(N3CCC(C)CC3)cc21 | -14% | -21%
Cc1ccc(CS(=O)(=O)CC(C)(O)c2ccccc2)cc1 (configuration not stated) | -21% | -16%
CC(Oc1ccccc1)C(=O)OCC(=O)N1CC(=O)Nc2ccccc21 (configuration not stated) | -3% | 7%
COc1cccc(-c2nn(C)c3sc(C(=O)NCc4ccccn4)cc23)c1 | -10% | -21%
CC(C)(C)OC(=O)NCCCC[C@H](NC(=O)c1[nH]cnc1C(=O)Nc1ccc(Cl)cc1)C(=O)OC(C)(C)C | -17% | ?
Cc1ccc(NC(=O)/C(=C\c2ccc3c(c2)OCO3)NC(=O)c2ccco2)cc1 | -9% | -9%
Cc1ccsc1/C=C1/SC(=O)N(CC(=O)N2CCOCC2)C1=O | nt | -19%
COc1ccc(C2C(C(=O)N3CCOCC3)CCC(=O)N2c2cc(OC)c(OC)c(OC)c2)cc1 (configuration not stated) | -13% | -6%
COc1ccc2cc(CN(CCc3ccccc3)Cc3nnnn3Cc3ccco3)c(=O)[nH]c2c1 | nt | -13%
CC(C)C(NS(=O)(=O)c1cccs1)C(=O)NCCN1CCN(c2ccccc2)CC1 (configuration not stated) | nt | -15%
C[C@@H]1CN([C@@H](C)CO)C(=O)CCCn2nncc2CO[C@@H]1CN(C)C(=O)Nc1ccc2c(c1)OCO2 | i | -12%
CC1Cc2ccccc2N1C(=O)CSc1nc2ccccc2n1CC(=O)N1CCOCC1 (configuration not stated) | -12% | -9%
Cc1ccc(C)c(/C=N/n2cc(-c3ccccc3)[nH]c2=S)c1 | ? | -11%
COc1ccc(-c2ccc(SCC(=O)N3CCOCC3)nn2)cc1 | -15% | -1%
C[C@@]12C(=O)Nc3ccc(F)cc3C(=O)N1[C@H]1c3cc(Cl)ccc3OC[C@@H]1[C@@H]2c1ccccc1 | ? | ?
CCOC(=O)C1CCCN(C(=O)c2cncc(Br)c2)CC1 (configuration not stated) | 5% | 13%
COC(=O)c1ccc(/C=C2\SC(=S)N(CCCC(=O)NCCCN3CCOCC3)C2=O)cc1 | 27% | 71%[activator]
CC1CN(C(=O)COc2coc(CN3CCc4ccccc4C3)cc2=O)CC(C)O1 (configuration not stated) | -16% | -8%
CC[C@H]1c2[nH]c3ccc(C(C)C)cc3c2[C@@H]2CCN3C(=O)CCC[C@H]1[C@H]23 | ? | ?
Cc1ccc(/C=N/NC(=O)c2ccoc2C)o1 | -9% | -5%
Cc1cc(C)n(-c2cc(N3CCN(C(=O)c4ccc(C(C)(C)C)cc4)CC3)ccc2[N+](=O)[O-])n1 | -25% | ?
COc1cccc(NC(=O)C2(C)CCN2C(=O)CCC2CCCC2)c1 (configuration not stated) | i | -3%
COc1ccccc1C1CCN(c2ccc([N+](=O)[O-])cn2)CC1 | i | -4%
CCn1ccnc1CN1CCCC(C(=O)c2cc(F)ccc2OC)C1 (configuration not stated) | -21% | 0%
Cc1ccccc1CNC(=O)CCCC(=O)n1nc(C)c2ccccc21 | i | -16%
O=C(O)CSc1nc2sc3c(c2c(=O)n1Cc1ccccc1)CCCCC3 | i | -3%
O=c1oc2ccccc2cc1-c1csc(Nc2nc3c(F)cccc3s2)n1 | -19% | -3%
Cc1n[nH]c2ccccc2c1=O | 3% | -8%

Carrying on.
canonical_smiles | VACV mCherry inh | Vaccinia Venus
Nc1nc(SCc2nc3sc4c(c3c(=O)[nH]2)CCCC4)n[nH]1 | -6% | -23%
Cc1ccc(CSc2ccc3nnc(-c4ccccn4)n3n2)cc1 | -8% | -9%
O=C(CCNC(=O)c1ccco1)Nc1ccc(Cl)c(C(F)(F)F)c1 | -6% | 0%
CCOc1ccccc1C(=O)NCc1ccc2c(c1)CCN2C(=O)c1ccc(F)cc1 | i | -15%
COc1ccc(C(=O)Nc2ccc3oc(-c4ccc(OC)cc4)nc3c2)cc1 | -13%[7.34 µM] | -14%[7.34 µM]
CC(C)(Cc1ccccc1)/[N+]([O-])=C\c1ccccc1 | -3% | 4%
COc1ccc(CCNC(=O)c2ccccc2OCc2c(C)noc2C)cc1 | -5% | -12%
Cn1nnnc1SCC(=O)Nc1ccc(C(=O)N2CCN(Cc3ccccc3F)CC2)cc1 | -13% | -13%
CCOC(=O)C1CCN(Cc2nc(-c3ccc(OC)c(OC)c3)no2)CC1 | nt | -28%
Cc1ccc(CSc2oc(-c3ccco3)nc2S(=O)(=O)c2ccc(C)cc2)cc1 | -4% | -16%
CCOC(=O)C1(C)CCCN(C(=O)c2cc(C)oc2C)C1 (configuration not stated) | 32%[activator] | -1%
Cc1c(NC(=O)c2ccc(-c3cccc([N+](=O)[O-])c3)o2)cccc1-c1nc2cc(Cl)ccc2o1 | -3% | 1%
CCOC(=O)C1CCCN(C(=S)Nc2ccc(S(=O)(=O)N3CCOCC3)cc2)C1 (configuration not stated) | -13% | -17%
CCCCCCCC(=O)OC(CN1CCCCCC1)CN1CCCC1=O (configuration not stated) | i | -10%
CC(=O)Oc1ccc(C(=O)Nc2ccc(S(=O)(=O)NCC3CCCO3)cc2)cc1 (configuration not stated) | -1% | -17%
CN(C)S(=O)(=O)c1ccc(Cl)c(NC(=O)CSc2nc3c(cc2C#N)C(=O)CC(C)(C)C3)c1 | -27% | -11%
O=C(c1cccs1)c1ccc(-c2cccs2)s1 | 11% | 68%[activator]
O=C(Nc1nc2nc(-c3ccccc3)cc(=O)n2[nH]1)c1ccc(F)cc1 | -11% | -15%
CCOc1ccccc1NC(=O)Nc1ccc2nc(N3CCN(C)CC3)cc(C)c2c1 | ? | ?
NP(=O)(OCCCc1ccccc1)Oc1ccc(Cl)cc1 (configuration not stated) | i | -13%
CCc1ccc2[nH]c(=O)c(CN(Cc3ccccc3OC)Cc3nnnn3Cc3ccco3)cc2c1 | nt | 28µM*
O=C(CN1C2=NCCN2c2ccccc21)c1cccs1 | -13% | -12%
CCCCCCn1c(SCC(C)C)nc2c1c(=O)[nH]c(=O)n2C | nt | 20%
Cc1nc(CNS(=O)(=O)c2cc([N+](=O)[O-])ccc2C)cs1 | -9% | -4%

Of the compounds above, two have a CF3 group.
canonical_smiles | VACV mCherry inh | Vaccinia Venus
O=C(Nc1cc(C(F)(F)F)ccc1Cl)c1ccc(NC(=O)C(F)(F)F)cc1 | ? | ?
O=C(CCNC(=O)c1ccco1)Nc1ccc(Cl)c(C(F)(F)F)c1 | -6% | 0%

(next part)
canonical_smiles | VACV mCherry inh | Vaccinia Venus
C[N+](C)(C)CCO | -11% | -5%
CS(=O)(=O)N1CCc2cc(C(=O)Nc3ccccc3Cl)ccc21 | -12% | -17%
COc1ccc(NC(=O)c2c[nH]c(=O)n(-c3ccc(C)c(C)c3)c2=O)c(OC)c1 | i | ?
NC(=O)c1ccc[n+]([C@@H]2OC(COP(=O)([O-])OP(=O)(O)OCC3OC(n4cnc5c(N)ncnc54)C(OP(=O)(O)O)C3O)C(O)C2O)c1 (some centres not stated) | -5% | 8%
Cc1ccc(C)c(NC(=O)COC(=O)c2cccc(S(=O)(=O)N3CCCCC3)c2)c1 | -10% | -7%
CCOC(=O)c1cnc(/N=C/N(C)C)s1 | i | -5%
Cc1ccc(Cc2nnc(SCC(=O)Nc3ccccc3C)[nH]c2=O)cc1 | -8% | -5%

High-throughput results: PubChem BioAssay, National Center for Advancing Translational Sciences (NCATS)
